Compound activity: PubChem, National Center for Advancing Translational Sciences (NCATS)
HPGD block: inhibitors of human 15-hydroxyprostaglandin dehydrogenase (HPGD); P15428; purified HPGD, NADH fluorescence kinetic, PGE2 substrate; Potency, µM, without a hit: top-dose activity change, negative = inhibition, usual class: inhibitors; hit rate 4.3% among 150,000; AID 894; active = well fitted inhibition curve with a large enough effect (not every such curve was filed as active); inconclusive = small, poorly fitted or top-dose-only effect, or another doubt; inactive = no such curve, though single readings can be large or run the other way;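 note: top concentration of the series not given in the record; plate controls included wells without enzyme; inactives centre near -10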
Target sequence (P15428 whole entry, looked up): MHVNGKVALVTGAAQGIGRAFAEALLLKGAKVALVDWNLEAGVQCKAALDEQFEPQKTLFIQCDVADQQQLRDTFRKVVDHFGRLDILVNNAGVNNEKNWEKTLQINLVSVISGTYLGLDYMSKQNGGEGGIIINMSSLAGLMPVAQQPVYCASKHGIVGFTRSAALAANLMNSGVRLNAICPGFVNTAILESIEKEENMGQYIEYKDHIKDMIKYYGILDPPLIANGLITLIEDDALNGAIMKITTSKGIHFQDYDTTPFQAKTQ
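20 nM HPGD preincubated 15 min at room temperature with compound in 50 mM Tris-HCl pH 8, 0.01% Tween 20. Started with 1 mM NAD+ and 30 uM prostaglandin E2; NADH fluorescence (360/450 nm) read 5 times over 30-s intervals, last minus first.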
* hit, by the source's call; u = inconclusive; & = joins results of further samples. % is set by controls: 0 for no effect and ±100 for the full control effect; potency is the fitted concentration of half-maximal effect. These rows are one share of the data; the hit share may differ from the screen's.

SMILES	HPGD block
Cc1nc(-n2nnc3ccccc32)c2c3c(sc2n1)CCCC3	u
COc1cc(/C=N/N2CCN(c3ccccc3OC)CC2)ccc1O	-3.2%
CCCCSC1(SCCCC)N=C(N)C2(C#N)C(c3ccccc3)NC(C)=C(C)C12C#N (stereo not given)	-12.4%
O=C(NCSC1=NCCS1)c1ccccc1	-5.7%
Cc1ccc(/C=N/NC(=O)CCCOc2ccc(Cl)cc2Cl)cc1	-2.8%
CC[C@]1(O)C[C@@H]2CN(CCc3c([nH]c4ccccc34)[C@](C(=O)OC)(c3cc4c(cc3OC)N(C=O)[C@H]3[C@@](O)(C(=O)OC)[C@H](C(=O)OC)[C@@]5(CC)C=CCN6CC[C@]43[C@H]65)C2)C1	-17.8%
Cc1cc(C)n(-c2ccc(C(=O)OCC(=O)c3ccc(Br)s3)cc2)n1	-11.5%
O=C(NCCCN1CCN(c2cccc(Cl)c2)CC1)c1ccc(N2CCCC2=O)cc1	-18.6%
O=c1oc2ccccc2c(NC(c2ccccc2)c2ccccc2)c1[N+](=O)[O-]	-14.8%
Cc1cc2cc(CNC(=O)CCC(=O)O)ccc2[nH]1	-9.2%
Cc1ccc(/C=C/C(=O)NC(=S)N2CCN(C)CC2)cc1	-17.7%
CCOC(=O)/C(=C/c1ccc(Cl)cc1)NC(=O)c1ccco1	-7.1%
CN(C)CC(=O)Nc1cc(C(F)(F)F)ccc1Cl	-16.1%
COc1ccc(O)c(C(=O)CC(=O)c2ccccc2)c1	u
Cc1nc(N2CCC(C)CC2)c2nnn(Cc3ccccc3)c2n1	-27.6%
CCOc1ccccc1C(=O)N[C@H](C(=O)OCc1cc(=O)oc2cc(C)ccc12)C(C)C	-14.2%
c1ccc2c(N3CCCCCC3)nc(-c3ccncc3)nc2c1	-6.5%
CN(C)S(=O)(=O)c1cccc(-c2nn(-c3ccccc3)cc2/C=C(\C#N)c2nc3ccccc3[nH]2)c1	-19.0%
CCOC(=O)c1nnc(-c2ccc(C)cc2)nc1Sc1cccc(Cl)c1	-5.8%
CC(=O)OC[C@H]1O[C@@H](Sc2cccc3cccnc23)[C@H](OC(C)=O)[C@@H](OC(C)=O)[C@@H]1OC(C)=O	u
O=C(O)c1cc(S(=O)(=O)Nc2cccc(F)c2)ccc1Cl	-10.2%
O=C(CC1Oc2ccccc2NC1=O)NCc1ccccc1 (stereo not given)	-8.0%
COc1cccc(NC(=O)Nc2ccc3nsnc3c2)c1	-13.6%
COc1ccccc1CCNC(=O)c1ccc(C)o1	8.91µM*
CCOC(=O)C(=O)/C(=C\N(C)C)c1onc(-c2c(F)cccc2Cl)c1C(=O)OC	10µM*
CC(=O)O[C@@H](C)C[N+](C)(C)C	-6.7%
Cc1cc([N+](=O)[O-])nn1CCCC(=O)Nc1cc(Oc2ccc(F)cc2)cc([N+](=O)[O-])c1	-14.4%
O=C(NCCC1=CCCCC1)C(=O)NCC(c1ccco1)N1CCN(c2ccccc2F)CC1 (stereo not given)	-4.0%
C=CCNC1=C(Cl)C(=O)c2ccccc2C1=O	-13.9%
Cc1sc2ncnc(NCC(c3ccco3)N3CCCC3)c2c1C (stereo not given)	-0.4%
Cc1oc(-c2cccc(Cl)c2)nc1CN1CCC(C(=O)NCC2CCCO2)CC1 (stereo not given)	-0.8%
CC1(C)Cc2c(sc3ncnc(N)c23)CO1	-19.5%
O=C(CSc1n[nH]c(C2CCCC2)n1)NC1CCCC1	-22.4%
Cc1ccc(-c2ccc(=O)n(CC(=O)NCCCN3CCCCC3C)n2)cc1 (stereo not given)	-22.8%
Cc1cccc(CSc2ccc3nnc(-c4cccnc4)n3n2)c1	-12.3%
CCN(c1ccc(OC)cc1)S(=O)(=O)c1ccc2c(c1)CCN2C(=O)CCC(=O)O	-5.6%
CCOC(=O)C(C(=O)OCC)C(C(=O)OCC)N1CCOCC1 (stereo not given)	22.4µM*
CCOc1ccccc1C(=O)N1CCCCC1C (stereo not given)	-3.7%
CCCc1nc(SCC(=O)N2CCc3ccccc32)c2c(=O)n(C)c(=O)n(C)c2n1	-2.9%
CCC1CC(C)(C(=O)Nc2ccc(S(N)(=O)=O)cc2)OC1=O (stereo not given)	-10.6%
Cc1ccc(C)c(/C(O)=C2/C(=O)C(=O)N(CCN3CCOCC3)C2c2ccc(C)o2)c1 (stereo not given)	-15.0%
CCOC(=O)C1CCCN(S(=O)(=O)c2c(C)c(C)cc(C)c2C)C1 (stereo not given)	-11.5%
COC(=O)C1CCN(C(=O)C23CCC(C)(C(=O)O2)C3(C)C)CC1 (stereo not given)	-10.5%
COc1cc(/C=N/Nc2ncc(C(F)(F)F)cc2Cl)cc(OC)c1OC	u
COc1ccccc1NC(=O)Cc1csc(N)n1	-8.0%
CC(=O)Nc1ccc(Oc2cc(C#N)c(C#N)cc2N2CCCCCC2)cc1	u
COc1ccc(C(C[N+](=O)[O-])c2c(C)[nH]c3ccccc23)cc1OC (stereo not given)	-3.8%
O=C(O)c1c(Br)c(Br)c(Br)c(Br)c1C1c2ccc(O)cc2Oc2cc(O)ccc21	2.51µM*
Cc1ccc(S(=O)(=O)N(C)C)cc1-n1c(SCC(=O)Nc2ccc(F)c(F)c2F)nc2ccccc2c1=O	-12.4%
O=S(=O)(NC1CCCC1)c1ccc(S(=O)(=O)N2CCc3ccccc32)cc1	-1.3%

Additional records.
SMILES	HPGD block
CN(C)C(=S)Nc1ccc2ccccc2c1	-5.6%
COc1ccc(Cl)cc1C(=O)Nc1ccc(N(C)C(C)=O)cc1	-8.5%
Nc1nc(SCc2c(F)cccc2Cl)[nH]c(=O)c1-c1ccccc1	-12.4%
CCCCCc1c(C)c(C#N)c2nc3ccccc3n2c1-n1ccnc1C	-15.6%
CC1CCN(Cc2nc3c(c(=O)n(C)c(=O)n3C)n2CCCc2ccccc2)CC1	-4.5%
CCOC(=O)C1CCN(C(=O)c2cccc(NC(=O)C(CC)CC)c2)CC1	4.9%
COc1cccc(C2C(C(=O)Nc3nc4ccccc4s3)=C(C)NC3=C2C(=O)CC(C)(C)C3)c1OC (stereo not given)	u
CCOC(=O)CC1=NN(c2ccccc2)C(=O)/C1=C\c1ccc(N(C)C)cc1	-26.2%
Cc1ccc(Cl)cc1NC(=O)c1ccc(NC(=O)CCC(=O)O)cc1	-1.9%
COCC(=O)Nc1c(C(=O)Nc2cccc(OC)c2)oc2ccccc12	u
CC/C=C\C/C=C\C/C=C\CCCCCCCCCCCC(=O)O	-17.9%
CC(=O)c1ccc(NC(=O)c2cc3nc4c(c(C(F)(F)F)n3n2)CCCC4)cc1	-8.0%
Cc1nc(C)c(C(=O)NCc2ccc(Cl)cc2)o1	-9.7%
O=C(c1ccc(F)cc1)C(CCCCCC(CN1CCOCC1)C(=O)c1ccc(F)cc1)CN1CCOCC1 (stereo not given)	-4.6%
Cc1cc(O)cc(=O)n1Cc1ccco1	-1.4%
CC(C)(C)OC(=O)NCCCCCc1nnc(SCC(N)=O)o1	-19.6%
CCOc1ccc(-n2c(C)nc3cc(C(=O)NCCCN4CCOCC4)ccc32)cc1	-13.5%
Cc1cc(=O)n2c(n1)OC(CO)C2 (stereo not given)	3.4%
COC(=O)c1ccc(NC(=O)c2ccc(CN3CCOCC3)cc2)cc1	-7.1%
O=C(Cn1nnc2ccccc21)N1CCCCC1	-0.7%
CCc1c2c(nc3ccccc13)OC(C)C2 (stereo not given)	-11.0%
OCC(O)C(O)[C@H](O[C@H]1OC(CO)C(O)C(O)C1O)[C@H](O)CO (stereo not given in full)	-5.3%
CCCNC(=O)OC[C@H]1O[C@H](CCO/N=C(\C)CCN2CCc3nc(-c4ccccc4)c(-c4ccccc4)cc3C2)C=C[C@@H]1Oc1ccc(OC)cc1	-7.7%
Cc1n[nH]c(=O)nc1NCc1ccccc1	-2.1%
CC(=O)N1CC[C@H]2CC(=O)CC[C@@]21C	-4.6%
CCC(C)(C)NC(=O)C(c1ccc(C)cc1)N(Cc1cccs1)C(=O)c1ccc2c(c1)OCCO2 (stereo not given)	-12.1%
CC(=O)c1ccc(Nc2nc(=O)c3cccnc3s2)cc1	-31.9%
COc1cc(C(=O)Nc2cccc(-c3nc4cc(C)cc(C)c4o3)c2)cc(OC)c1OC	u
N#Cc1c(/N=C/c2ccccc2)oc(-c2ccccc2)c1-c1ccccc1	u
CC(C)CN1CCC(C(=O)NCC2CCCO2)CC1 (stereo not given)	1.4%
CCOCc1nnc(NC(=O)CSCc2ccccc2)s1	-2.9%
NC(=O)C(c1ncc(C(F)(F)F)cc1Cl)c1c(Cl)cccc1Cl (stereo not given)	-10.6%
CSc1nnc(NC(=O)c2cc3ccccc3oc2=O)s1	-9.7%
COC(=O)c1c(NC(=O)CSc2nnnn2C)sc(C)c1C	-10.7%
COc1ccc(Cc2nnc(N)s2)cc1OC	31.6µM*
CCOc1ccc(Br)cc1C(=O)Nc1ccc(C(=O)NCC(C)C)cc1	2µM*
Cc1ccc2cc(C#N)c(SCC(=O)NNC(=O)Cc3ccccc3)nc2c1	-4.9%
COc1cc(CCN2C(=O)c3cccc4cccc(c34)C2=O)c(S(=O)(=O)N2CCC(C)CC2)cc1OC	u
CN(C)N1C(N)=C(C#N)C(c2cccnc2)C2=C1CC(C)(C)CC2=O (stereo not given)	-5.1%
O=C(O)CCCNS(=O)(=O)c1ccc(Br)s1	-8.6%

Exported bar-delimited: entries from further up.
smiles | HPGD block
CC(=O)N1CC[C@H]2CC(=O)CC[C@@]21C | -4.6%
CCC(C)(C)NC(=O)C(c1ccc(C)cc1)N(Cc1cccs1)C(=O)c1ccc2c(c1)OCCO2 (stereo not given) | -12.1%
CC(=O)c1ccc(Nc2nc(=O)c3cccnc3s2)cc1 | -31.9%
COc1cc(C(=O)Nc2cccc(-c3nc4cc(C)cc(C)c4o3)c2)cc(OC)c1OC | u
N#Cc1c(/N=C/c2ccccc2)oc(-c2ccccc2)c1-c1ccccc1 | u
CC(C)CN1CCC(C(=O)NCC2CCCO2)CC1 (stereo not given) | 1.4%
CCOCc1nnc(NC(=O)CSCc2ccccc2)s1 | -2.9%
NC(=O)C(c1ncc(C(F)(F)F)cc1Cl)c1c(Cl)cccc1Cl (stereo not given) | -10.6%
CSc1nnc(NC(=O)c2cc3ccccc3oc2=O)s1 | -9.7%
COC(=O)c1c(NC(=O)CSc2nnnn2C)sc(C)c1C | -10.7%
COc1ccc(Cc2nnc(N)s2)cc1OC | 31.6µM*
CCOc1ccc(Br)cc1C(=O)Nc1ccc(C(=O)NCC(C)C)cc1 | 2µM*
Cc1ccc2cc(C#N)c(SCC(=O)NNC(=O)Cc3ccccc3)nc2c1 | -4.9%
COc1cc(CCN2C(=O)c3cccc4cccc(c34)C2=O)c(S(=O)(=O)N2CCC(C)CC2)cc1OC | u
CN(C)N1C(N)=C(C#N)C(c2cccnc2)C2=C1CC(C)(C)CC2=O (stereo not given) | -5.1%
O=C(O)CCCNS(=O)(=O)c1ccc(Br)s1 | -8.6%

(further entries)
SMILES	HPGD block
COc1cc2c(cc1NC(=O)/C=C/c1ccc([N+](=O)[O-])cc1)oc1ccccc12	-8.3%
O=C(NCc1ccco1)N1c2ccccc2Sc2ccccc21	-19.9%
COc1ccccc1-c1nc(-c2ccncc2)no1	-14.5%
O=c1ccccn1Cc1c(Cl)cccc1Cl	-15.7%
CCCC1CCc2c(sc(NC(=O)c3cccs3)c2C(N)=O)C1 (stereo not given)	u
COc1ccc(C)cc1S(=O)(=O)NC1CCCC1	-12.4%
Cn1cnc2c1c(=O)[nH]c(=O)n2C	-2.3%&-6.7%&-4.7%&-9.0%
Cc1cccc(NC(=O)CCOc2ccccc2)c1	-14.8%
Cc1cc(C(=O)Nc2c(C)nn(Cc3ccccc3)c2C)on1	-12.9%
C=CCOc1ccc(/C=C/C(=O)Nc2ccc(C(=O)NC)cc2)cc1	u
C=CCN1C=C2C(=O)C(C)(OC(=O)c3cccs3)C(=O)C=C2C=C1CCCC(=O)OC (stereo not given)	2.5%
Cc1[nH]c2ccccc2c1C(=O)/C=C/c1ccccc1	-16.6%
O=C(CSC1=NCCS1)Nc1nc2ccccc2s1	-15.1%
O=C(NCc1ccccc1)NS(=O)(=O)c1ccccc1Cl	-1.3%
COc1ccc(C2CC(c3ccccc3OC(C)=O)=NN2C(=O)/C=C/c2ccccc2)cc1OC (stereo not given)	u
CCc1cc(C(=O)Cc2nc3ccccc3[nH]2)c(O)cc1O	u
CCCCOC(=O)CSC1=C(C#N)C(c2ccccc2OCC)C(C#N)C(=O)N1 (stereo not given)	5.0%
CCOc1ccc(NC(=O)Nc2cc(C)on2)cc1	-5.7%
Nc1nc(Nc2ccccc2Br)nc(C(F)(F)F)n1	-5.3%
Cn1c(-c2ccccc2)cnc1NCc1cc2c(cc1[N+](=O)[O-])OCO2	-16.1%
Cn1c(=O)c2c(nc(N3CCC(C(N)=O)CC3)n2CCSc2nc3ccccc3s2)n(C)c1=O	-2.5%
Cc1cnc(C(=O)Nc2ccc(C(=O)N3CCCCC3)cc2)cn1	0.282µM*
COc1ccc(CNS(=O)(=O)c2ccc3oc(C(=O)O)c(C)c3c2)cc1	-26.6%
COC(=O)c1ccccc1COn1c(=O)c[n+]([O-])c2ccccc21	-20.8%
O=C(c1cccc(Cl)c1)N1CCN(Cc2ccncc2)CC1	-3.2%
Cc1ccc(/C=C/C(=O)OC(C)C(=O)Nc2ccc(Cl)cn2)o1 (stereo not given)	-22.3%
COc1ccc2c(c1)Cc1sc(NC(=O)c3cccs3)nc1-2	-23.8%
CCc1ccc(Nc2nc3ccccc3c(=O)s2)cc1	-13.9%
CC12CC[C@@H]3c4ccc(OS(=O)(=O)O)cc4CC[C@H]3C1CCC2=O (stereo not given in full)	1.0%
CCOc1ccc(-c2nnc(N3CCCCC3)c3ccccc23)cc1	-29.4%
COc1ccc(NS(=O)(=O)c2ccc(SC)cc2)cc1	-19.4%
COc1cccc(-n2c(Cn3nc(C(F)(F)F)cc3C)n[nH]c2=S)c1	-16.0%
